# NOMO-1 viab: NOMO-1 AML cell viability reduction, primary screen, STK33 inhibitor project, CellTiter-Glo luminescence | inhibition, % (no concentration beside the values) | 37,000 tested, 7.5% active | NOMO-1 AML viability, 72 h;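 active = most replicates above 80%; inconclusive = exactly half above 80%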;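 also: wells of about 30 µL received 25 nL stock; 0% = median of vehicle wells and 100% = reference inhibitor level; the first replicate is given; inactives centre near 10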
# * marks the source's active call; other numbers are inactive results; ? = inconclusive. This is a subset; the hit share may differ from the screen's.
SMILES,NOMO-1 viab
O=C(Nc1ccc(I)cc1C(=O)NCC1CCCO1)c1cccnc1 (stereo unspecified),-17
C[C@H]1CN([C@@H](C)CO)C(=O)c2cc(NS(=O)(=O)c3cn(C)cn3)ccc2O[C@H]1CN(C)S(=O)(=O)c1cn(C)cn1,1
C[C@@H]1CN([C@H](C)CO)C(=O)c2cc(NC(=O)Nc3cccc4ccccc34)ccc2O[C@@H]1CN(C)S(=O)(=O)c1cn(C)cn1,11
Cc1noc(C)c1S(=O)(=O)N(C)C[C@@H]1Oc2ccc(NC(=O)Nc3ccccc3)cc2CC(=O)N([C@H](C)CO)C[C@H]1C,19
Cc1cc(OCC(=O)Nc2cc(-c3nc4ccccc4o3)ccc2C)ccc1Cl,43
COc1ccc(S(=O)(=O)N(C)C[C@H]2Oc3ccc(NS(C)(=O)=O)cc3C(=O)N([C@@H](C)CO)C[C@H]2C)cc1,-4
Cc1noc(C)c1NC(=O)N(C)C[C@H]1Oc2ccc(NC(=O)c3ccncc3)cc2C(=O)N([C@H](C)CO)C[C@H]1C,-14
C[C@@H]1CN([C@H](C)CO)C(=O)Cc2cc(NS(=O)(=O)c3ccc(F)cc3)ccc2O[C@H]1CN(C)Cc1ccccc1,18
Cc1nc(SCC(=O)NCc2ccccc2)n[nH]1,28
C[C@@H]1CCCCO[C@H](CN(C)C(=O)Nc2cccc3ccccc23)[C@@H](C)CN([C@H](C)CO)C(=O)c2cc(NC(=O)Cc3ccccc3)ccc2O1,45
Cc1cc(N(CC(=O)Nc2ccccc2C(=O)N2CCCC2)S(C)(=O)=O)ccc1Br,2
C[C@H](CO)N1C[C@H](C)[C@@H](CN(C)CC2CC2)Oc2ccc(NS(=O)(=O)c3ccccc3)cc2C1=O,13
Cc1noc(C)c1S(=O)(=O)N(C)C[C@@H]1Oc2ccc(NC(=O)NC(C)C)cc2CC(=O)N([C@H](C)CO)C[C@@H]1C,6
Cc1cc(NC(=O)c2nn3c(C(F)(F)F)cc(-c4ccccc4)nc3c2Cl)n(-c2ccccc2)n1,-13
C[C@@H]1CN([C@@H](C)CO)C(=O)c2cccc(NC(=O)C3CCCCC3)c2O[C@H]1CN(C)S(=O)(=O)c1ccc(F)cc1,16
Cc1noc(C)c1NC(=O)N(C)C[C@H]1Oc2c(NC(=O)c3ccc(-c4nccs4)cc3)cccc2C(=O)N([C@H](C)CO)C[C@@H]1C,-3
CNC[C@@H]1Oc2ccc(NC(=O)CCCN(C)C)cc2C(=O)N([C@H](C)CO)C[C@@H]1C,24
COc1ccc(NC(=O)Nc2cccc3c2O[C@H](CN(C)Cc2ccc(-c4ccccc4)cc2)[C@@H](C)CN([C@H](C)CO)C3=O)cc1,8
COc1ccccc1NC(=O)c1c(NC(=O)c2cccnc2)sc2c1CCC(C)C2 (stereo unspecified),15
Cc1cccc(NC(=O)c2ccc(OCC(=O)Nc3ccc(Cl)c(Cl)c3)cc2)c1C,30
C[C@@H]1CCCCO[C@@H](CN(C)S(=O)(=O)c2cn(C)cn2)[C@@H](C)CN([C@H](C)CO)C(=O)c2cc(NS(=O)(=O)c3ccc(F)cc3)ccc2O1,19
C[C@@H]1CN([C@@H](C)CO)C(=O)Cc2cc(NC(=O)CCN3CCOCC3)ccc2O[C@@H]1CN(C)Cc1ccc(C(=O)O)cc1,-22
COc1ccc(-c2cn(S(=O)(=O)c3ccccc3OC)nc2N)cc1OC,19
C[C@H](CO)N1C[C@H](C)[C@H](CN(C)Cc2ccccc2)Oc2ccc(N(C)C)cc2C1=O,-1
Cc1noc(C)c1NC(=O)Nc1cccc2c1O[C@H](CN(C)Cc1ccccc1)[C@@H](C)CN([C@H](C)CO)C2=O,38
COc1ccc(S(=O)(=O)N(C)C[C@H]2Oc3ccc(NC(=O)Nc4ccc(C(F)(F)F)cc4)cc3CC(=O)N([C@H](C)CO)C[C@H]2C)cc1,42
C[C@@H]1CN([C@H](C)CO)C(=O)c2cccc(NS(C)(=O)=O)c2O[C@@H]1CN(C)Cc1ccc(-c2ccccc2)cc1,20
Cc1noc(C)c1NC(=O)Nc1ccc2c(c1)CC(=O)N([C@H](C)CO)C[C@@H](C)[C@@H](CN(C)Cc1ccc(-c3ccccc3)cc1)O2,44
Cc1ccc2c(C)c(C(=O)Nc3ccc(S(=O)(=O)Nc4ncccn4)cc3)oc2c1,34
COC(=O)c1cc(OC)c(OC)cc1NC(=O)c1c(C)noc1C,1
C[C@@H]1CN([C@@H](C)CO)C(=O)c2cc(NC(=O)Nc3cccc4ccccc34)ccc2O[C@@H]1CN(C)Cc1ccc(Cl)c(Cl)c1,93*
Cc1ccc(S(=O)(=O)Nc2cccc3c2O[C@@H](CN(C)Cc2ccc(-c4ccccc4)cc2)[C@@H](C)CN([C@H](C)CO)C3=O)cc1,42
O=C(CCc1ccc(O)cc1)CC(O)CCc1ccc(O)c(O)c1 (stereo unspecified),85*
C[C@@H]1CN([C@H](C)CO)C(=O)Cc2cc(NC(=O)CCN3CCOCC3)ccc2O[C@@H]1CN(C)C,22
CC(=O)O[C@H]1CC[C@H](C)[C@@]2(C)[C@H](OC(C)=O)c3c(C)coc3C(=O)[C@H]12,11
NC(=O)CSc1nnc(Cc2ccccc2)n1-c1ccccc1,29
C[C@@H]1CN([C@H](C)CO)C(=O)c2cccc(NS(=O)(=O)c3cccs3)c2O[C@@H]1CN(C)CC1CCCCC1,21
Cc1ccc(S(=O)(=O)Nc2ccc3c(c2)CC(=O)N([C@H](C)CO)C[C@@H](C)[C@H](CN(C)Cc2ccncc2)O3)cc1,13
Cc1cc(C(=O)Nc2cccc3c2O[C@H](CN(C)S(=O)(=O)c2ccccc2)[C@@H](C)CN([C@H](C)CO)C3=O)n(C)n1,17
C[C@@H]1CN([C@H](C)CO)C(=O)c2cc(NC(=O)NC3CCCCC3)ccc2O[C@@H]1CN(C)C(=O)Nc1ccccc1,4

# A few values from the entries so far.
# Cc1ccc2c(C)c(C(=O)Nc3ccc(S(=O)(=O)Nc4ncccn4)cc3)oc2c1 @ NOMO-1 viab: 34
# Cc1noc(C)c1NC(=O)Nc1cccc2c1O[C@H](CN(C)Cc1ccccc1)[C@@H](C)CN([C@H](C)CO)C2=O @ NOMO-1 viab: 38
# C[C@@H]1CCCCO[C@@H](CN(C)S(=O)(=O)c2cn(C)cn2)[C@@H](C)CN([C@H](C)CO)C(=O)c2cc(NS(=O)(=O)c3ccc(F)cc3)ccc2O1 @ NOMO-1 viab: 19

# Next part
SMILES,NOMO-1 viab
O=C(CN(CCO)C(=O)c1ccc(Cl)cc1)Nc1ccc(F)cc1,-22
CC(Sc1nc(N)cc(N)n1)C(=O)Nc1cccc(Cl)c1 (stereo unspecified),9
Cc1ccc(S(=O)(=O)N(C)C[C@@H]2Oc3c(NS(=O)(=O)c4cccs4)cccc3C(=O)N([C@@H](C)CO)C[C@@H]2C)cc1,17
C[C@H]1CN([C@@H](C)CO)C(=O)Cc2cc(NC(=O)CCC(F)(F)F)ccc2O[C@H]1CN(C)Cc1ccc(Cl)c(Cl)c1,14
Cc1ccc(NC(=O)Cn2nc(-c3ccc(C)c(S(=O)(=O)N(C)C)c3)c3ccccc3c2=O)cc1,0
COc1ccccc1CC(=O)Nc1ccc(S(=O)(=O)N2CCOCC2)cc1,20
Cc1cc(C)cc(NC(=O)COc2ccc(N3CC(C(N)=O)CC3=O)cc2)c1 (stereo unspecified),25
Cc1cc2c(cc1C)C(Nc1ccccc1)=NC(C)(C)C2,59
Cc1noc(C)c1NC(=O)Nc1ccc2c(c1)C(=O)N([C@H](C)CO)C[C@@H](C)[C@@H](CN(C)C(=O)Nc1ccc(C(F)(F)F)cc1)O2,9
CN(CC(=O)Nc1ccccc1C(N)=O)S(=O)(=O)c1cc(Cl)ccc1Cl,-8
O=C(CSc1nnnn1-c1ccccc1)Nc1ccc(Cl)cc1O,48
Cn1c(=N)n(CCCOc2ccc(F)cc2)c2ccccc21,94*
C[C@@H]1CN([C@H](C)CO)C(=O)Cc2cc(NC(=O)CCCCCC(=O)Nc3ccccc3N)ccc2O[C@H]1CN(C)Cc1ccncc1,-4
COc1cc(NC(=O)Cn2nnc(-c3ccccc3Cl)n2)cc(OC)c1OC,5
Cc1ccc(S(=O)(=O)N(C)C[C@@H]2OCCCC[C@@H](C)Oc3ccc(NS(=O)(=O)c4cn(C)cn4)cc3C(=O)N([C@H](C)CO)C[C@@H]2C)cc1,9
COC(=O)C1=C(C)Nc2ncnn2C1c1cccc(OC)c1OCc1ccccc1 (stereo unspecified),8
CC1=CC(=O)CC2C1(C)CCC(C)C2(C)CC/C(C)=C\C(=O)O (stereo unspecified),2
C[C@@H]1CN([C@H](C)CO)C(=O)c2cc(NC(=O)Cc3cn(C)c4ccccc34)ccc2O[C@@H]1CN(C)C,3
C[C@H](CO)N1C[C@H](C)[C@H](CN(C)C(=O)Nc2ccc3c(c2)OCO3)Oc2c(NS(C)(=O)=O)cccc2C1=O,1
O=C(CC(NC1CCCC1)C(=O)O)Nc1cccc(Cl)c1 (stereo unspecified),-5
COC(=O)c1ccc(NC(=O)C(C)NS(=O)(=O)c2ccc(Cl)cc2)cc1 (stereo unspecified),0
C[C@H]1CN([C@@H](C)CO)C(=O)Cc2cc(NC(=O)Nc3ccc(F)cc3)ccc2O[C@@H]1CN(C)Cc1ccc(Cl)c(Cl)c1,96*
Cc1ccc(S(=O)(=O)N(C)C[C@@H]2Oc3ccc(NC(=O)CCCCCC(=O)Nc4ccccc4N)cc3CC(=O)N([C@H](C)CO)C[C@H]2C)cc1,2
COc1ccc(S(=O)(=O)Nc2ccc3c(c2)C(=O)N([C@H](C)CO)C[C@H](C)[C@H](CN(C)Cc2ccc(-c4ccccc4)cc2)O3)cc1,24
Cc1c(Cl)cccc1NC(=O)CNC(=O)c1ccc([N+](=O)[O-])cc1,27
O=C(c1ccc(Br)cc1)N1CCC(Cc2ccccc2)CC1,41
CCc1ccccc1NC(=O)CN(C)S(=O)(=O)c1c(C)cc(C)cc1C,0
C[C@@H]1CN([C@H](C)CO)C(=O)Cc2cc(NS(=O)(=O)c3ccc(Cl)cc3)ccc2O[C@@H]1CN(C)Cc1ccncc1,41
NC(=O)CSc1nc2c(c(=O)n1Cc1ccccc1)C1(CCCCC1)Cc1ccccc1-2,55
Cc1noc(C)c1S(=O)(=O)N(C)C[C@@H]1Oc2c(NC(=O)c3cnccn3)cccc2C(=O)N([C@H](C)CO)C[C@@H]1C,-7
O=C(/C=C/CCc1ccccc1)CCc1ccccc1,121*
C[C@@H]1CN([C@H](C)CO)C(=O)Cc2cc(NS(=O)(=O)c3cccs3)ccc2O[C@@H]1CN(C)S(=O)(=O)c1ccc(F)cc1,2
C[C@@H]1CN([C@@H](C)CO)C(=O)c2cc(NC(=O)Cn3cnnn3)ccc2O[C@H]1CN(C)Cc1ccncc1,18
COc1ccc(/C=C/c2cc(O)cc(O[C@@H]3O[C@H](CO)[C@@H](O)[C@H](O)[C@H]3O)c2)cc1O,41
Cc1ccc(S(=O)(=O)Nc2ccc3c(c2)C(=O)N([C@H](C)CO)C[C@H](C)[C@H](CN(C)Cc2ccncc2)OCCCC[C@@H](C)O3)cc1,-4
COc1ccc(NC(=O)Nc2ccc3c(c2)C(=O)N([C@@H](C)CO)C[C@H](C)[C@H](CN(C)C(=O)Nc2ccc(C(F)(F)F)cc2)O3)cc1,8
COc1cc(OC)c(NC(=O)CSc2nc3ccc([N+](=O)[O-])cc3s2)cc1Cl,18
COc1ccc(CCn2c(=S)[nH]c3cc(C(F)(F)F)ccc32)cc1OC,32
CS(=O)(=O)c1ccc(C(=O)Nc2ccccc2Cl)cc1,26
CC1(C)CC(N=Cc2ccco2)CC(C)(C)N1,-14
C[C@H]1CN([C@@H](C)CO)C(=O)c2cc(NC(=O)CCCCCC(=O)Nc3ccccc3N)ccc2O[C@@H]1CN(C)C(=O)Nc1ccc2c(c1)OCO2,-5
COC(=O)c1sccc1NC(=O)CSc1nnnn1-c1ccccc1C,13
C[C@H](CO)N1C[C@H](C)[C@H](CN(C)Cc2ccccc2)Oc2ccc(NS(=O)(=O)c3ccccc3)cc2C1=O,-11
CC1(C)CC[C@]2(C(=O)O[C@@H]3O[C@H](CO)[C@@H](O)[C@H](O)[C@H]3O)CC[C@]3(C)C(=CCC4[C@@]5(C)CC[C@H](O[C@@H]6O[C@H](C(=O)O)[C@@H](O[C@@H]7O[C@H](CO)[C@@H](O)[C@H](O)[C@H]7O)[C@H](O)[C@H]6O[C@@H]6O[C@H](CO)[C@@H](O)[C@H](O)[C@H]6O)C(C)(C)C5CC[C@]43C)C2C1 (stereo partly specified),9
CN(CC(=O)Nc1ccc(Br)cc1)S(=O)(=O)c1ccc2ccccc2c1,31
C[C@@H]1CN([C@@H](C)CO)C(=O)c2cccc(NC(=O)Nc3ccc(C(F)(F)F)cc3)c2O[C@H]1CN(C)Cc1ccc(Oc2ccccc2)cc1,?

# A portion of the results above, as a working copy:
SMILES,NOMO-1 viab
C[C@H]1CN([C@@H](C)CO)C(=O)c2cc(NC(=O)CCCCCC(=O)Nc3ccccc3N)ccc2O[C@@H]1CN(C)C(=O)Nc1ccc2c(c1)OCO2,-5
COC(=O)c1sccc1NC(=O)CSc1nnnn1-c1ccccc1C,13
C[C@H](CO)N1C[C@H](C)[C@H](CN(C)Cc2ccccc2)Oc2ccc(NS(=O)(=O)c3ccccc3)cc2C1=O,-11
CC1(C)CC[C@]2(C(=O)O[C@@H]3O[C@H](CO)[C@@H](O)[C@H](O)[C@H]3O)CC[C@]3(C)C(=CCC4[C@@]5(C)CC[C@H](O[C@@H]6O[C@H](C(=O)O)[C@@H](O[C@@H]7O[C@H](CO)[C@@H](O)[C@H](O)[C@H]7O)[C@H](O)[C@H]6O[C@@H]6O[C@H](CO)[C@@H](O)[C@H](O)[C@H]6O)C(C)(C)C5CC[C@]43C)C2C1 (stereo partly specified),9
CN(CC(=O)Nc1ccc(Br)cc1)S(=O)(=O)c1ccc2ccccc2c1,31
C[C@@H]1CN([C@@H](C)CO)C(=O)c2cccc(NC(=O)Nc3ccc(C(F)(F)F)cc3)c2O[C@H]1CN(C)Cc1ccc(Oc2ccccc2)cc1,?

# Screening results (PubChem BioAssay)
